Vaccinia mCherry = inhibitors of vaccinia virus infection (mCherry reporter signal); Vaccinia virus mCherry reporter infection, fluorescence; about a quarter of the inactives have no number; Potency, µM (doses to about 36.5 µM), for inactives: top-dose activity change, negative = inhibition, hits mostly inhibitors; actives 0.63% (n = 310,000); AID 720579; active = well fitted inhibition curve with a large enough effect; inconclusive = small, poorly fitted or top-dose-only effect; inactive = no such curve, though single readings can be large or run the other way; tested in A549 cells; note: nearly all actives have a fitted effect of over 35% in size; inactives centre near -10
Vaccinia Venus = inhibitors of vaccinia virus (Venus reporter); Vaccinia virus Venus reporter expression, fluorescence; actives 0.46% (n = 330,000); AID 720580; Potency, µM (highest dose often 36.5 µM), inactives show at the highest dose activity change, negative = inhibition, most hits filed as inhibitors; active means well fitted inhibition curve with a large enough effect; inconclusive means small, poorly fitted or top-dose-only effect; inactive means no such curve, though single readings can be large or run the other way; tested in A549 cells; note: nearly all actives have a fitted effect of over 30% in size; inactives centre near -10
An asterisk follows results filed as active; i = inactive; ? = inconclusive; nt = not tested or not shown; & = joins results of further samples; [ ] = dose if it differs, or a comment. % is set by controls: 0 for no effect and ±100 for the full control effect; potency is the fitted concentration of half-maximal effect.

SMILES | Vaccinia mCherry | Vaccinia Venus
Nc1ccc(-c2nc3c(Cl)c(N)ccc3[nH]2)cc1 | -11% | -14%
COc1cccc(C(=O)Nc2ccc3nc(N4CCC(C)CC4)cc(C)c3c2)c1 | -12% | -17%
Cc1ccc(SCCN2CCC(NC(=O)OCc3ccccc3)CCC2=O)cc1 (centres undefined) | -27%&-1% | -11%&-14%
Cn1c(SCC(=O)NC2CCCCC2)nnc1-c1cccc(N)c1 | nt | -9%
Cc1cc(F)ccc1S(=O)(=O)Nc1ccccc1C(=O)NCc1ccccn1 | -13% | -2%
Cc1cccc(CC(=O)Nc2cccc(-c3nc4cccnc4s3)c2)c1 | i | -4%
CN1CCN(c2ccc([N+](=O)[O-])cc2C(=O)c2ccccc2)CC1 | -21% | ?
Cc1nc(C(=O)N(Cc2cc3ccc(F)cc3nc2N2CCC(O)CC2)CC2CCCO2)cs1 (centres undefined) | -12% | -6%
O=C(c1ccccc1Cl)N(Cc1ccco1)c1ccccn1 | -15% | -2%
Cc1c(Br)cc(C(=O)N2CCCCCC2)c(C)c1C | -24% | -18%
Cc1ccnc(NC(=O)c2cccc(S(=O)(=O)N3CCN(c4ccc(F)cc4)CC3)c2)c1 | -28% | -23%
O=C(CSc1nc2c([nH]c3ccccc32)c(=O)n1-c1cccc(Cl)c1)N1CCc2ccccc21 | 6% | -2%

Entries shown so far that have a carbonyl joined to an NH by a bond outside any ring (6):
SMILES | Vaccinia mCherry | Vaccinia Venus
COc1cccc(C(=O)Nc2ccc3nc(N4CCC(C)CC4)cc(C)c3c2)c1 | -12% | -17%
Cc1ccc(SCCN2CCC(NC(=O)OCc3ccccc3)CCC2=O)cc1 (centres undefined) | -27%&-1% | -11%&-14%
Cn1c(SCC(=O)NC2CCCCC2)nnc1-c1cccc(N)c1 | nt | -9%
Cc1cc(F)ccc1S(=O)(=O)Nc1ccccc1C(=O)NCc1ccccn1 | -13% | -2%
Cc1cccc(CC(=O)Nc2cccc(-c3nc4cccnc4s3)c2)c1 | i | -4%
Cc1ccnc(NC(=O)c2cccc(S(=O)(=O)N3CCN(c4ccc(F)cc4)CC3)c2)c1 | -28% | -23%

(more compounds)
SMILES | Vaccinia mCherry | Vaccinia Venus
CCOC(=O)C1CCN(C(=O)c2[nH]c3ccc(OC)cc3c2C)CC1 | i | -6%
N#Cc1ccc(C(=O)Nc2cc(S(=O)(=O)N3CCOCC3)ccc2N2CCOCC2)cc1 | i | 0%
CCCCCCCSc1ncnc2[nH]ncc12 | -5% | -21%
CCN1CCc2c(C#N)c(N3CCOCC3)nc(NCc3ccccc3)c2C1 | -17% | -6%
O=C(Nc1nnc(S(=O)(=O)N2CCc3ccccc32)s1)c1cccc(Cl)c1 | ? | ?
CC(=O)c1ccc(N(CC(=O)NC2CCCC2)C(=O)CNC(=O)c2ccco2)cc1 | -6% | 1%
CC1=C(C(=O)OCC(Br)(Br)Br)C(c2cccc([N+](=O)[O-])c2)NC(=O)N1CCCC(=O)O (centres undefined) | -14% | 5%
Cc1ccccc1NC(=O)CSc1nc(-c2ccccc2)cn1-c1ccccc1F | -13% | -8%
O=C1C2CC=C(Cl)CC2C(=O)N1CCC[n+]1cccc2ccccc21 (centres undefined) | 5% | -3%
O=C(Nc1nnc(-c2ccco2)o1)c1cccc(N2C(=O)CCC2=O)c1 | i | -1%
COc1cccc(CN2CC(C(=O)NCCOc3ccccc3F)CCC2=O)c1 (centres undefined) | i[7.34 µM] | 0%[7.34 µM]
CSc1ccc(COC(=O)CCS(=O)(=O)c2ccc(C)cc2)cc1 | i | -9%
CC(=O)c1cccc(NC(=O)COC(=O)C2CCCN2C(=O)c2cccs2)c1 (centres undefined) | i | -13%
O=[N+]([O-])c1cc(S(=O)(=O)N2CCCC2)ccc1N/N=C/c1ccncc1 | i | 0%
CCOc1ccc(CCNC(=O)COC(=O)COc2ccc(C#N)cc2)cc1OCC | -9% | -27%
CC(C)N(C(=O)[C@H]1C[C@H](CC(=O)NCCC2=CCCCC2)C(=O)N2CCc3c([nH]c4cc(CCC(=O)N(C)C)ccc34)[C@]12C)C(C)C | -27% | ?
CCC(NC(=O)Nc1cc(OC)ccc1OC)c1c(-n2cccc2)sc2c1CCN(CC)C2 (centres undefined) | -16% | -16%
CCC(=O)NCCCc1nc(-c2ccccc2)no1 | i | -9%
CC(=O)N1c2ccccc2C2CCCC[C@H]21 (some centres undefined) | i | -8%
O=C1CCCC2=C1C(c1ccc(O)c(O)c1)Nc1ccc3ncccc3c12 (centres undefined) | ? | -7%
CC1(C)CC(=O)C(C=Nc2ccc(O)cc2)=C(O)C1 | ? | ?
Cc1ccccc1NC1=NC(C)(C)N=C(N)N1 | i | -12%
O=C(Nc1ccc(Br)cc1)c1ccc(F)c(S(=O)(=O)NC2CCCCCC2)c1 | ? | -30%[7.34 µM]
O=C(/C=C/c1ccccc1)N1CCC(N2CCC(C(=O)N3CCOCC3)CC2)CC1 | i | -2%
Cc1ccc(S(=O)(=O)Nc2ccc3c(c2)C(=O)N([C@H](C)CO)C[C@H](C)[C@@H](CN(C)Cc2ccccc2)O3)cc1 | -14% | -23%
C=CCn1c(O)c(C(C)=NCCCn2ccnc2)c(=O)[nH]c1=O | i | 10%
CCOC(=O)c1ccc(N/C(=N\S(=O)(=O)c2ccccc2C)c2ccccc2)cc1 | nt | -17%
Nn1cnc2c(c1=O)C1(CCCCC1)Cc1ccccc1-2 | ? | ?
Cc1cccc(C)c1NC(=O)C(NC(=O)c1ccccn1)c1ccc([N+](=O)[O-])cc1 (centres undefined) | -17% | -3%
CC1=Nc2ccccc2/C1=C(/C)c1c(C)[nH]c2ccccc12 | -14% | -11%
C/C(=N\O)c1cc(Cl)cc(Cl)c1O | i | -11%
O=C(NC1CCCCCC1)c1c(F)c(F)c(F)c(F)c1F | ? | -25%
COc1ccc(-c2nc(CCl)cs2)cc1OC | -2% | -23%
O=C(NC1CCN(C(=O)Nc2cccc(Cl)c2)CC1)C1CCCCC1 | -9% | -11%
COc1ccc(Cc2c(O)nc(SC)n(C(C)=O)c2=O)cc1 | nt | 1%
CCOC(=O)N1CCN(C(=O)c2ccc(SC)cc2OC)CC1 | i | -10%
Cn1nc(C(C)(C)C)cc1C(=O)NNC(=O)c1cccc(Cl)c1 | i[7.34 µM] | -4%[7.34 µM]
O=C(c1ccccc1)c1cccn1CC(=O)N1CCN(C2CCCCC2)CC1 | nt | -9%
CC(C)(C)OC(=O)N1CCN(C(=O)c2nc[nH]c2C(=O)N2CCN(c3ccccc3)CC2)CC1 | -13% | -9%
CCc1c(Nc2ccccc2C)nc(N)[nH]c1=O | i | -7%
NS(=O)(=O)c1ccc(NC(=O)CCC(=O)N2CCOCC2)cc1 | -6% | -10%
CC(=O)c1c(C)nc2sc3c(=N)n(N)cnc3c2c1-c1ccc(Cl)cc1 | 3.5µM* | 4.5µM*
COc1ccc(NC(=O)C2Cc3c(-c4cccc(F)c4)ccnc3O2)cn1 (centres undefined) | -10% | -16%
CCOC(=O)c1cc(C)n(CCCN2CCOCC2)c1C | 1% | 4%
CCCC(=O)Nc1nc2ccc(NC(=O)c3ccc(Br)o3)cc2s1 | nt | ?
CC(=O)Nc1ccc(-c2ccnc3c2CC(C)(C(=O)Nc2cccc(C(C)=O)c2)O3)cc1 (centres undefined) | i | -11%
Cc1ccc(S(=O)(=O)N(CC(=O)NCCSCc2ccco2)c2cc(C)ccc2C)cc1 | ? | -27%
Cn1ncc2c(N3CCOCC3)ncnc21 | -11% | -25%
CC(=O)OC1CC(C)(C)N(OC(=O)CCCN2C(=O)c3ccccc3C2=O)C(C)(C)C1 | -13% | 4%
CCOc1ccccc1NC(=O)COC(=O)c1cn(CC)c2nc(C)ccc2c1=O | -7% | -12%
C=CCn1c(O)c(N=NC(=O)c2ccc3c(c2)OCO3)c2ccccc21 | nt | -3%
O=C(C1=C(O)C(=O)N(CCOCCO)C1c1cccs1)c1cccs1 (centres undefined) | i | -8%
CC(=O)Nc1ccc(NC(=O)C(C)OC(=O)c2ccccc2C(=O)c2ccc(Cl)c([N+](=O)[O-])c2)cc1 (centres undefined) | ? | ?
CCN(CC)S(=O)(=O)c1cc(NS(=O)(=O)c2cccs2)ccc1C | -14% | -2%
CC1(C(=O)NS(=O)(=O)c2cccc(F)c2)CCN1C(=O)Cc1cc(F)ccc1F (centres undefined) | 6% | 3%
COc1ccc(Nc2nc(-c3cccc([N+](=O)[O-])c3)nc3ccccc23)cc1 | ? | ?
O=C(Cn1nnc2ccccc21)NNC(=S)NC1CCCCC1 | -1% | -9%
CN(C)c1ccc(-c2ccc([C@H]3[C@@H]4C=CCC[C@@]4(C)C(=O)N3Cc3ccccc3)c(F)c2)cc1 | ? | -22%
CC(C)N(Cc1ccccc1)S(=O)(=O)c1ccc(Cl)nc1 | ? | ?
O=C(CN1CCCCCC1)NCCc1ccc(F)cc1 | -17% | -11%

Compounds from the list above that have two or more sulfur atoms, in the order listed:
SMILES | Vaccinia mCherry | Vaccinia Venus
O=C(Nc1nnc(S(=O)(=O)N2CCc3ccccc32)s1)c1cccc(Cl)c1 | ? | ?
CSc1ccc(COC(=O)CCS(=O)(=O)c2ccc(C)cc2)cc1 | i | -9%
Cc1ccc(S(=O)(=O)N(CC(=O)NCCSCc2ccco2)c2cc(C)ccc2C)cc1 | ? | -27%
O=C(C1=C(O)C(=O)N(CCOCCO)C1c1cccs1)c1cccs1 (centres undefined) | i | -8%
CCN(CC)S(=O)(=O)c1cc(NS(=O)(=O)c2cccs2)ccc1C | -14% | -2%

Carrying on:
SMILES | Vaccinia mCherry | Vaccinia Venus
CCCCN1CC(O)=C(c2nc3ccccc3[nH]2)C1=N | -30% | -17%
CCOC(=O)C(C)N1c2cccc3cccc(c23)S1(=O)=O (centres undefined) | i | -3%
COc1cc(S(=O)(=O)n2c(C)nc3ccccc32)ccc1F | nt | ?
COc1ccc(-c2nc3c(Cl)cc(C(F)(F)F)cn3c2Cc2ccccc2C(F)(F)F)cc1OC | i | -20%
COc1ccccc1NC(=O)Cn1nnc(C(=O)Nc2ccccc2)c1N | -11% | 1%
CCN(CC)C(=O)CSc1nnc2nnc3cc(Cl)ccc3n12 | -55% | ?
C/C(=N/NC(=O)c1cccs1)c1cccc(NC(=O)C2CC2)c1 | -26% | -19%
O=C(CN(Cc1ccco1)C(=O)CNS(=O)(=O)c1ccc(Cl)cc1)NCc1ccco1 | 12% | 1%
O=C(c1ccc(Cl)c(NC2=NC3CS(=O)(=O)CC3S2)c1)N1CCN(c2ccccc2)CC1 (centres undefined) | 11%[7.34 µM] | 2%[7.34 µM]
O=C(NCc1ccccc1)NC1CC2CCC(C1)N2Cc1ccco1 (centres undefined) | -17% | ?
COCC(=O)Nc1cc(C(=O)OC)cc(C(=O)OC)c1 | -8% | -7%
Clc1ccc(CN2CCC(c3nc4ccc(Cl)cc4[nH]3)CC2)cc1 | -26% | ?
CCC(C(=O)OCC(=O)Nc1c(C)n(C)n(-c2ccccc2)c1=O)c1ccccc1 (centres undefined) | -14% | 0%
CCCn1c(SCC(=O)N2CC(=O)Nc3ccccc32)n[nH]c1=O | i | -1%
COc1ccc(CN2CC[C@H]3C=CC[C@@H](C(=O)NC4CCCCC4)[C@H]3C2=O)cc1OC | i | -18%
COc1ccc(S(=O)(=O)NC(=O)C2(C)CCN2C(=O)c2ccccc2CCc2ccccc2)cc1 (centres undefined) | i | -2%
O=C(c1cncc(Br)c1)N1CCN(S(=O)(=O)c2ccc3ccccc3c2)CC1 | ? | ?
Cc1ccc(C(=O)Nc2ccccc2)cc1S(=O)(=O)Nc1ccccc1 | -9% | -6%
C[C@H]1CN([C@@H](C)CO)C(=O)CCCn2nncc2CO[C@H]1CN(C)C(=O)C1CC1 | i | -10%
COc1cccc(Cn2c(SCC(=O)N(C)c3ccccc3)nc3ccccc32)c1 | ? | -27%
COc1ccc(C2c3c(ncn(CCN4CCOCC4)c3=N)Oc3ccc4ccccc4c32)cc1 (centres undefined) | -20% | -24%
COC(=O)Cc1ccc(NC(=S)N2CCCCC2C)cc1 (centres undefined) | -6% | -7%
CCn1cc(/C=C(\NC(=O)c2ccccc2OC)C(=O)NCCN2CCOCC2)c2ccccc21 | -9% | -15%
COc1ccc(-c2nc3ccccc3o2)cc1NC(=O)C(C)(C)Oc1ccc(Br)cc1 | -4% | 4%

Not a retest: an excerpt of the list.
SMILES | Vaccinia mCherry | Vaccinia Venus
CCC(C(=O)OCC(=O)Nc1c(C)n(C)n(-c2ccccc2)c1=O)c1ccccc1 (centres undefined) | -14% | 0%
CCCn1c(SCC(=O)N2CC(=O)Nc3ccccc32)n[nH]c1=O | i | -1%

Continuation.
SMILES | Vaccinia mCherry | Vaccinia Venus
CCOC(=O)CCCc1cc[c]([Sb](=[O])([OH])[OH])cc1 | -7% | -16%
Cc1ccc(-c2nn(-c3ccccn3)c(=O)c3ccccc23)cc1 | -11% | -19%
COc1ccc(NC(=O)CN2C(=O)NC(C)(c3ccc(C)cc3)C2=O)c([N+](=O)[O-])c1 (centres undefined) | -11% | -7%
COc1ccc(-c2ccnc(SCC(=O)c3ccc(Br)cc3)n2)cc1 | -6% | -1%
Cc1ccc(NC(=O)CSc2nc3ccccc3c3nc(CCc4c(C)n[nH]c4C)nn23)c(C)c1 | -8% | -3%
Cc1ccc(NC(=O)c2sc(-n3nc(C)c(Cc4ccc5c(c4)OCO5)c3C)nc2C)cc1C | -10% | -6%
O=C(COc1ccc(Cl)cc1)N(Cc1ccco1)c1ccccn1 | -14% | -2%
COC(=O)c1cc(COc2ccc3c4c(c(=O)oc3c2)CCCC4)c(C)o1 | i | -15%
O=C1NC2(CCC3(CC2)OCCO3)NN1c1ccccc1 | -15% | -15%
N#C/C(=C(/O)COC(=O)COc1ccc(Cl)cc1)c1nc2ccccc2[nH]1 | 1% | 10%
COc1cc(OC)cc(-c2cc3ccccc3c(=O)o2)c1 | -28% | -24%
Cc1c(C(=O)NN)sc(-c2ccccc2)c1C#N | -18% | -10%
